# VACV mCherry inh: inhibitors of vaccinia virus infection (mCherry reporter signal) | Potency, µM (doses to about 36.5 µM), without a hit: at the top dose activity change, negative = inhibition, hits mostly inhibitors | Vaccinia virus mCherry reporter infection, fluorescence; about a quarter of the inactives have no number | 310,000 tested, 0.63% active; active = well fitted inhibition curve with a large enough effect; inconclusive = small, poorly fitted or top-dose-only effect; inactive = no such curve, though single readings can be large or run the other way; tested in A549 cells; note: nearly all actives have a fitted effect of over 35% in size; inactives centre near -10
# VACV Venus inh: vaccinia inhibition (Venus reporter); Vaccinia virus Venus reporter expression, fluorescence; Potency, µM (top dose mostly 36.5 µM), inactives show at the top dose activity change, negative = inhibition, most hits filed as inhibitors; 330,000 tested, 0.46% active; active means well fitted inhibition curve with a large enough effect; inconclusive means small, poorly fitted or top-dose-only effect; inactive means no such curve, though single readings can be large or run the other way; tested in A549 cells; note: nearly all actives have a fitted effect of over 30% in size; inactives centre near -10
# * = called active by the depositor; i = inactive; ? = inconclusive; . = not tested or not shown; [ ] = dose if it differs, or a comment. % is set by controls: 0 for no effect and ±100 for the full control effect; potency is the fitted concentration of half-maximal effect.
SMILES,VACV mCherry inh,VACV Venus inh
CCOC(=O)CN1C(=O)N[C@@H](c2cccc(C(F)(F)F)c2)[C@@H](C(=O)OC)[C@H]1C,i,-21%
COc1cc2c(cc1CNC[C@H]1O[C@@H](n3cnc4c(N)ncnc43)[C@H](O)[C@@H]1O)OCO2,-13%,-6%
CN(C)c1ccc(C2NCC(CCl)O2)cc1 (configuration not stated),i,-3%
CCOC(=O)C1CCCN(C(=O)c2cc(Cl)ccc2Cl)C1 (configuration not stated),i,-17%
COc1cccc(NC(=O)CN2CCN(c3nc(-c4cccc(OC)c4)cs3)CC2)c1,-23%,-26%
Cc1cc(-c2n[nH]c(=S)n2/N=C/c2ccc(Cl)c([N+](=O)[O-])c2)n[nH]1,?,?
NC(=O)CC(NC(=O)c1ccccc1)c1ccc(NCc2ccc(F)c(F)c2)c([N+](=O)[O-])c1 (configuration not stated),-20%,-25%
Nn1c(SCC(=O)NCc2ccccc2)nncc1=O,-10%,-4%
C[C@@H]1CN([C@@H](C)CO)C(=O)CCCn2nncc2CO[C@@H]1CN(C)C(=O)Nc1ccc(N2CCCCC2)cc1,-17%,-5%
Brc1ccc(OCc2cn3ccccc3n2)cc1,-10%,-12%
COc1ccc(S(=O)(=O)Nc2ccccc2C(=O)NCc2cccnc2)cc1,-20%,-14%
O=[N+]([O-])c1cc2c(cc1/C=N/NS(=O)(=O)c1ccc(Br)cc1)OCO2,-17%,16%
CCCCCCNC(=O)CCNS(=O)(=O)c1ccc(C)cc1,-5%,-23%
COc1cccc(OCCCn2c(-c3ccc(Cl)cc3)nc3ccccc3c2=O)c1,-4%,3%
COC(=O)Cc1csc(Nc2ccccc2Cl)n1,-11%,-2%
CC(C)N(C(=S)NC1CC2CCC1C2)c1ccccc1 (configuration not stated),-3%,-5%
COC(=O)c1ccccc1S(=O)(=O)NNC(=O)Nc1ccccc1,-19%,-6%
CC(C)C(=O)OCC(=O)Nc1ccc(N=Nc2ccccc2)cc1,?,-29%
CN(CCOc1ccc(-c2ccn(S(=O)(=O)c3cccc4ccccc34)n2)cc1)c1ccccn1,-11%,-15%
Cc1ccc(NC(=O)CSc2nc(NS(=O)(=O)c3ccccc3)cc(=O)[nH]2)cc1,-14%,-8%
C=CCOC(=O)C1=C(C)NC(SC)=C(C#N)C1c1ccc(OCC)cc1 (configuration not stated),-28%,?
COC(=O)C[C@H]1C=C[C@H](NC(=O)C2CCOCC2)[C@@H](CO)O1,-1%,-1%
CC(NC1CCCCC1)C(=O)NN=C(c1ccccc1)c1ccccc1 (configuration not stated),-23%,-19%
CC(C)N(Cc1ccccc1)C(=O)COC(=O)C1CCN(S(=O)(=O)c2ccc3c(c2)OCCO3)CC1,-13%,0%

# Three entries from above, sorted by molar mass, rising:
SMILES,VACV mCherry inh,VACV Venus inh
CC(C)N(C(=S)NC1CC2CCC1C2)c1ccccc1 (configuration not stated),-3%,-5%
C=CCOC(=O)C1=C(C)NC(SC)=C(C#N)C1c1ccc(OCC)cc1 (configuration not stated),-28%,?
CN(CCOc1ccc(-c2ccn(S(=O)(=O)c3cccc4ccccc34)n2)cc1)c1ccccn1,-11%,-15%

# More results follow:
SMILES,VACV mCherry inh,VACV Venus inh
Cc1ccccc1CN1C(=O)c2ccccc2S1(=O)=O,-18%,-1%
CCN(CC)S(=O)(=O)c1cccc(NC(=O)COC(=O)c2n[nH]c(=O)c3ccccc23)c1,i,-1%
Cc1cc2nc(SCC(=O)N(C)C)c3c(c2cc1C)CCCC3,-4%,-19%
COc1cc(OC)c2cc(C(=O)N/N=C/c3ccccc3O)[nH]c2c1,1.1µM*,?
CC(=O)Nc1ccc(C2=CC(=O)C[C@H](c3ccc(Cl)cc3)C2)cc1,?,-13%
CC1(C)Cc2c(sc3nnn(CC(=O)Nc4ccccc4)c(=O)c23)CO1,-14%,-13%
CSc1nc2nccc(-c3ccc(Oc4ccccc4)cc3)n2n1,.,?
COc1ccccc1NC(C)C(=O)Nc1ccc(C(C)=O)cc1 (configuration not stated),-1%,-20%
Cc1ccc(NS(=O)(=O)c2cccs2)c(C)c1,-21%,-21%
COc1cc(OC)c(NC(=O)c2sc3nc4n(c(=O)c3c2C)CCCC4)cc1Cl,3%,-9%
COC(=O)c1ccc(C(=O)OC)c(NC(=O)CN2CCC(C)CC2)c1,1%,0%
CSc1ccc(/C=N/NC(=O)COc2ccc(Br)cc2Cl)cc1,-20%,-12%
CCN(CC)C(=O)Cn1cc(S(=O)(=O)CC(=O)Nc2ccc(F)cc2)c2ccccc21,-10%,2%
COC(=O)C(Cc1ccc(O)cc1)NC(=O)c1ccc2c(c1)OCCO2 (configuration not stated),i,-6%
CCCCCC1C(=O)CCC1CC(=O)O (configuration not stated),i,-6%
CCN(CC)C(=O)c1sc(NC(=O)Cc2cccs2)c(C#N)c1C,-16%,-1%
COc1ccc(-n2nnc3c(=O)n(Cc4cc(C)ccc4C)cnc32)cc1,0%,-11%
Cc1ccc(C(=O)NCC(=O)OCC(=O)c2ccc3c(c2)NC(=O)CO3)cc1,-8%,5%
O=C1NC2(CCCCCC2)C(=O)N1Cc1ccc(F)cc1Cl,i,-9%
O=C(O)/C=C/C(=O)N(Cc1ccccc1)Cc1ccco1,i,-8%
CCOc1ccccc1CN1CCN(C2CCOCC2)CC1CCO (configuration not stated),-11%,-10%
Cc1cc(NC(=O)N2CCC(CN3CCOCC3)CC2)ccc1Br,-13%,-21%
O=C(O)CCC(NC(=O)c1ccc(Cl)cc1)C(=O)O (configuration not stated),i,9%
CC1=NN(C(=O)c2c(Br)cnn2C)C(O)(C(F)(F)F)C1 (configuration not stated),-10%,-6%

# Part of the list above in a different format.
# Under each structure: VACV mCherry inh	VACV Venus inh
- Cc1ccc(NS(=O)(=O)c2cccs2)c(C)c1
 : -21%	-21%
- COc1cc(OC)c(NC(=O)c2sc3nc4n(c(=O)c3c2C)CCCC4)cc1Cl
 : 3%	-9%
- COC(=O)c1ccc(C(=O)OC)c(NC(=O)CN2CCC(C)CC2)c1
 : 1%	0%
- CSc1ccc(/C=N/NC(=O)COc2ccc(Br)cc2Cl)cc1
 : -20%	-12%
- CCN(CC)C(=O)Cn1cc(S(=O)(=O)CC(=O)Nc2ccc(F)cc2)c2ccccc21
 : -10%	2%
- COC(=O)C(Cc1ccc(O)cc1)NC(=O)c1ccc2c(c1)OCCO2 (configuration not stated)
 : i	-6%
- CCCCCC1C(=O)CCC1CC(=O)O (configuration not stated)
 : i	-6%
- CCN(CC)C(=O)c1sc(NC(=O)Cc2cccs2)c(C#N)c1C
 : -16%	-1%
- COc1ccc(-n2nnc3c(=O)n(Cc4cc(C)ccc4C)cnc32)cc1
 : 0%	-11%
- Cc1ccc(C(=O)NCC(=O)OCC(=O)c2ccc3c(c2)NC(=O)CO3)cc1
 : -8%	5%
- O=C1NC2(CCCCCC2)C(=O)N1Cc1ccc(F)cc1Cl
 : i	-9%
- O=C(O)/C=C/C(=O)N(Cc1ccccc1)Cc1ccco1
 : i	-8%
- CCOc1ccccc1CN1CCN(C2CCOCC2)CC1CCO (configuration not stated)
 : -11%	-10%
- Cc1cc(NC(=O)N2CCC(CN3CCOCC3)CC2)ccc1Br
 : -13%	-21%
- O=C(O)CCC(NC(=O)c1ccc(Cl)cc1)C(=O)O (configuration not stated)
 : i	9%

# (continued)
SMILES,VACV mCherry inh,VACV Venus inh
CCN(CC)C(=O)CSc1nc(-c2ccccc2)cc(=O)[nH]1,6%,4%
CC1CC1C(=O)N(C)CC(=O)Nc1ccc(Cl)c(C(F)(F)F)c1 (configuration not stated),-24%,-13%
Cn1nccc1C(=O)OCC(=O)Nc1ccccc1Cl,-4%,1%
O=C(O)CN1C(=O)/C(=C\c2ccccc2OCc2ccc(Cl)cc2Cl)SC1=S,-1%,-14%
Cc1c(NS(=O)(=O)c2cc(C(=O)Nc3ccc(F)cc3Cl)ccc2Cl)c(=O)n(-c2ccccc2)n1C,-11%,-14%
CSc1ncc(Cl)c(C(=O)NCc2cccnc2)n1,-14%,-15%
CCOc1ccc(NC(=O)Nc2nnc(CC(=O)NCc3ccccc3)s2)cc1,i,-10%
CS(=O)(=O)N1CCCCC1c1cc(C(=O)NCc2ccccc2)no1 (configuration not stated),1%,4%
COc1cc(/C=N/Nc2nc3ccccc3[nH]2)cc(OC)c1O,-19%,-20%
Cc1c(C(=O)N(C)C)c2cc(Cl)ccc2n1O,?,-11%
COc1ccc2[nH]c(=O)c(CN(CCCN3CCOCC3)C(=O)NCc3ccccc3)cc2c1,.,-16%
COc1cc(Cl)c(C)cc1NC(=O)COC(=O)CCc1nc2ccccc2c(=O)[nH]1,0%,-13%
O=C(NCCc1nc2ccccc2[nH]1)/C(=C/c1ccc2c(c1)OCO2)NC(=O)c1ccc(Cl)cc1Cl,i,-20%
CCC(=O)Nc1ccc2c(c1)ncn2-c1ccccc1C,i,-21%
CCOc1ccc(NC(=O)CN(C)C(=O)Cc2sc(C)nc2-c2ccc(F)cc2)cc1OCC,-15%,-10%
COc1ccc(Cl)cc1-c1csc(N)n1,-25%,-29%
O=C(O)c1cc(S(=O)(=O)N2CCCCC2)ccc1Cl,-13%,-11%
O=C(CSc1nccn1C1CCCC1)Nc1ccccc1,-14%,-14%
CCOC(=O)c1sc2ccccc2c1S(=O)(=O)NCc1ccc(F)cc1,1%,6%
C=CCN(C(=O)CNC(=O)c1ccco1)C(C(=O)NC1CCCCC1)c1cccnc1 (configuration not stated),-2%,4%
COc1cc(CCC(=O)N2CCN(c3ccccc3Cl)CC2)cc(OC)c1OC,-11%,-16%
CSc1ccc(Cn2c(C)c(C(=O)NCc3cccc(Cl)c3)sc2=O)cc1,-10%,-14%
COc1ccc(CNC(=O)Nc2cccc3ccccc23)cc1,-7%,-6%
C[C@]12CC[C@H]3[C@@H](CC[C@]4(O)C[C@@H](O)CC[C@]34C=O)[C@@]1(O)CC[C@@H]2C1=CC(=O)OC1,1µM*,1µM*
CN(C)CC(O)CN1C(=O)N(CN2C(=O)N(CC(O)CN(C)C)C(=O)C2(C)C)C(C)(C)C1=O (configuration not stated),6%,-2%
COc1cc(SC)ccc1C(=O)OCC(=O)NC1CCCC1,i,-12%
c1cncc(-c2ccc3ncnc(N4CCNCC4)c3c2)c1,-3%,0%
CCc1nnc(NC(=O)CN2CCN(C(=O)c3ccccc3)CC2)s1,i,-9%
CCOc1ccc(CN(C)CC(=O)Nc2ccc([N+](=O)[O-])cc2Cl)cc1,-20%,-10%
CCOC(=O)C1=CCC(c2ccc(N(CC)CC)cc2)N(S(=O)(=O)c2ccc(C)cc2)C1c1ccc([N+](=O)[O-])cc1 (configuration not stated),-8%,1%
CC(C)Sc1ncc(Cl)c(C(=O)Nc2ccc(S(=O)(=O)N3CCCCC3C)cc2)n1 (configuration not stated),-16%,-10%
Cn1cc(Cl)c(C(=O)OCC(=O)c2ccccc2)n1,32%[activator],-4%
Cc1ccc(Cn2c(C)c(CNCCCc3ccccc3)c(C(=O)O)c2C)cc1,0%,-1%
Cc1ccc(S(=O)(=O)N2CCC(=O)N([C@H](CO)Cc3ccccc3)CC2)cc1,10%,-1%
Cc1ccc2cccc(NS(=O)(=O)c3ccccc3)c2n1,-5%,-16%
CCc1ccc(C(=O)NNC(=O)CCC2CCCCC2)cc1,8%,-1%
O=C(NC1CCCC1)C1CCCN(S(=O)(=O)c2cnc[nH]2)C1 (configuration not stated),i,-10%
Fc1ccc(-c2cc(C(F)(F)F)nc(NCc3ccccc3)n2)cc1,-7%,-1%
O=C(NC(Cc1ccccc1)C(=O)O)C1CCCCC1 (configuration not stated),-8%,-8%
CC(=O)Nc1ccc(S(=O)(=O)N2CCN(C(=O)c3ncoc3-c3ccccc3C)CC2)cc1,-15%,-10%
CCOC(=O)C1=C(C)NC2=C(C(=O)CC(c3ccc(OC)c(OC)c3)C2)C1c1ccc(C)o1 (configuration not stated),-3%,-6%
CC(C)CCN1C(=O)C2(OCCCO2)c2cc(Cl)ccc21,-14%,-4%
CCc1ccc(CNC(=O)Cn2nc(-c3ccccc3)ccc2=O)cc1,-2%,-12%
O=C1NC(=O)C(=O)C(=O)N1,-10%,-16%
CCOC(=O)C1(CC)NC(c2ccco2)C2C(=O)N(c3ccc(C)cc3)C(=O)C21 (configuration not stated),-4%,-10%
CN(Cc1ccon1)C(=O)c1cnn(-c2nccc(-c3ccc4c(c3)OCO4)n2)c1C1CC1,i,-27%
O=C(O)CCCn1cc(NC(=O)c2cc(F)c(F)cc2Cl)cn1,-14%,-11%
CC1CCCCC1NC(=O)COC(=O)CNC(=O)c1cccc(F)c1 (configuration not stated),-2%,1%
CCOC(=O)c1c(C)[nH]c(C)c1S(=O)(=O)NCC(=O)Nc1ccc(C)c(N(C)C)c1,-14%,-4%
COc1ccc(NS(=O)(=O)c2cc(C(=O)N3CCN(C(C)=O)CC3)ccc2Cl)cc1,i,7%
COc1ccc(-c2nc(NC(=O)c3ccccc3)sc2-c2ccc([N+](=O)[O-])cc2)cc1,-10%,-17%
CC1(C)CC(=O)C(C=Nc2ccc(NC3=C(C#N)C(=O)CC(C)(C)C3)cc2)=C(O)C1,i,-8%
CCOC(=O)c1oc2ccc(S(=O)(=O)n3nc(-c4ccc(Br)cc4)cc3N)cc2c1C,?,?
CCN(Cc1ccccc1)S(=O)(=O)CCNC(=O)c1ccccc1,i,-9%
CCC(C(=O)Nc1cc(C(=O)Nc2cc(C)ccn2)ccc1Cl)c1ccccc1 (configuration not stated),7%,-12%
Cc1ccccc1N=C1Nc2ccc(Cl)cc2N[C@]12C[C@H]1CCCC(=O)N3CC[C@@H](C2)[C@@H]13,i,-5%

# Source: PubChem BioAssay (National Center for Advancing Translational Sciences (NCATS))
